VDR inh: vitamin D3 receptor (human) inhibition; P11473; VDR-SRC2-3 peptide fluorescence polarization, 2 h; Potency, µM, inactives show max response, negative = inhibition, most hits filed as inhibitors; 400,000 tested, 0.93% active; AID 504847; active = well fitted inhibition curve with a large enough effect; inconclusive = small, poorly fitted or top-dose-only effect, or another doubt; inactive = no such curve, though single readings can be large or run the other way; also: series mostly up to about 120 µM
Target sequence (P11473 whole entry, looked up): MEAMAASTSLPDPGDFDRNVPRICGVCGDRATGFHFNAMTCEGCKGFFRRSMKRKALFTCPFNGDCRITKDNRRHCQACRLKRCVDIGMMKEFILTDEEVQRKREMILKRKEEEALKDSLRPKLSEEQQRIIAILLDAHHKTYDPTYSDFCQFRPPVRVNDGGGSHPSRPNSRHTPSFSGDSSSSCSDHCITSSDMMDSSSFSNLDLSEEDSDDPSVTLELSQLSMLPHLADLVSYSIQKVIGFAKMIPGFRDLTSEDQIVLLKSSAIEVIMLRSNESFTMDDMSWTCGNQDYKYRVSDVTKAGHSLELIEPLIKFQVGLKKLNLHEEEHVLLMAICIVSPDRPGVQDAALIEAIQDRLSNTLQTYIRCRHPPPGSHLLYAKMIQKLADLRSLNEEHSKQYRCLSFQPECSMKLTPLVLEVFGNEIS
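Compounds are added to VDR with labelled SRC2-3 coactivator peptide and held 2 h at room temperature. Inhibition of the VDR–peptide interaction is then read as a change in fluorescence polarization.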
* marks the source's active call; other numbers are inactive results; & = joins results of further samples. % is scaled to controls: 0 for no effect and ±100 for the full control effect; potency is read from the fitted curve at half-maximal effect. Not all compounds are listed. The share of hits here may be higher or lower than overall.

Results for CN(C)C(=O)c1ccc(NC(=O)c2cccc(S(=O)(=O)N3CCCc4ccccc43)c2)cc1 ?
VDR inh: -3%

What do the screens show for `Cc1ccc(S(=O)(=O)/C(C#N)=C/c2c(N3CCC(C(N)=O)CC3)nc3ccccn3c2=O)cc1`?
VDR inh: -15%

How did CCCCn1c(NS(=O)(=O)c2ccccc2)c(S(=O)(=O)c2ccc(C)cc2)c2nc3ccccc3nc21 do in these assays?
VDR inh: 50µM*

Results for Nc1cc(C(=O)O)c(N)c2c1C(=O)c1ccccc1C2=O ?
VDR inh: 8.9µM*

What do the screens show for `Cc1nc2c3cc(Cl)ccc3n(CCN3CCOCC3)c2s1`?
VDR inh: -5%

Results for O=C(N/N=C/c1ccccn1)c1ccccc1 ?
VDR inh: -16%

Results for CC1(C)CC(=O)C(C(=O)Cc2ccccc2[N+](=O)[O-])C(=O)C1 ?
VDR inh: 5%

How did COc1ccc(C(=O)NCCc2c[nH]c3ccccc23)cc1S(=O)(=O)N1CCOCC1 do in these assays?
VDR inh: -10%

How did COc1ccc(CC(=O)NC2CCN(Cc3nnnn3C(C)(C)C)CC2)cc1OC do in these assays?
VDR inh: -3%

How did Cc1cn2c(N)c(/C=C3\C=Nc4ccccc43)c(=O)nc2s1 do in these assays?
VDR inh: 7%

What do the screens show for `O=C(Nc1cc(Cl)cc(Cl)c1)c1cnn2cccnc12`?
VDR inh: 6%

Results for COc1ccc(-c2nc(CS(=O)CC(=O)NC3CCCCC3)c(C)o2)cc1OC (stereo unspecified) ?
VDR inh: -10%

Structural class, those above containing a Cl atom.
What do the screens show for `Cc1nc2c3cc(Cl)ccc3n(CCN3CCOCC3)c2s1`?
VDR inh: -5%

What do the screens show for `O=C(Nc1cc(Cl)cc(Cl)c1)c1cnn2cccnc12`?
VDR inh: 6%

Carrying on.
Results for CCCCCCCCCCCCCc1ccco1 ?
VDR inh: 3%

How did Cc1cc2nccc(-c3ccc(Cl)cc3Cl)n2n1 do in these assays?
VDR inh: 0%

Results for CCOc1ccccc1OCc1nn2c(COc3ccccc3)nnc2s1 ?
VDR inh: 32µM*

Results for COc1ccc(C(=O)NCc2nnc(SCC(=O)Nc3ccccc3)n2-c2ccccc2)cc1 ?
VDR inh: -7%

How did S=C(Nc1cc(Cl)ccc1Cl)Nn1cnnc1 do in these assays?
VDR inh: 79µM*

What do the screens show for `COc1ccc(C(=O)Oc2cccnc2)cc1OC`?
VDR inh: -8%

How did CCCCCC(=O)Nc1c(-c2cccs2)c(=O)c2ccccc2n1C do in these assays?
VDR inh: -8%

Results for Cc1cc(-c2[nH]nc3c2C(c2ccsc2)C(C#N)=C(N)O3)c(C)s1 (stereo unspecified) ?
VDR inh: -17%

Results for COc1ccc(N(CC(=O)NCCC(C)C)C(=O)c2snc(C(=O)NC3CCCCC3)c2N)c(OC)c1 ?
VDR inh: 7%

How did Cc1nn2c(N3CCOCC3)cc(C(C)C)nc2c1-c1ccccc1 do in these assays?
VDR inh: -8%

Results for COc1ccc(CCNC(=O)CCCCn2c(=O)c3ccccc3n(CC(=O)Nc3c(C)cccc3C)c2=O)cc1OC ?
VDR inh: -8%

How did CN(C)c1ccc(/C=N/N2CCN(Cc3ccccc3Cl)CC2)cc1 do in these assays?
VDR inh: -15%

What do the screens show for `C=CCn1c(NCc2ccc3c(c2)OCO3)nc2ccccc21`?
VDR inh: -9%

Results for COc1ccc(-c2cc(NC(=O)c3cncn3-c3ccccc3)ccc2OC)cc1 ?
VDR inh: -13%

How did O=C(NCCc1ccccc1)c1cc(Nc2ccccc2)nc2ccccc12 do in these assays?
VDR inh: 6%

How did O=C(COC(=O)c1ccc(Cl)nc1)NC1CCCCCC1 do in these assays?
VDR inh: 3%

What do the screens show for `COc1cc(-c2nc3ccc(C)cn3c2NCc2ccccc2)ccc1SC1CCCCC1`?
VDR inh: 0%

How did CCOc1ccc(N2C(=O)CC(SC(=NC)Nc3cccc(OC)c3)C2=O)cc1 (stereo unspecified) do in these assays?
VDR inh: 16%

What do the screens show for `CCN(C[C@H]1N[C@@](Cc2ccccc2)(C(=O)OC)[C@H]2C(=O)N(C)C(=O)[C@@H]12)S(=O)(=O)c1ccc(C(F)(F)F)cc1`?
VDR inh: 19%

What do the screens show for `CC1CCCN(CC(=O)NNC(=O)COc2ccc(Br)cc2)C1` (stereo unspecified)?
VDR inh: -12%

How did COc1ccc(S(=O)(=O)N2CCOCC2)cc1NC(=O)COc1cccnc1[N+](=O)[O-] do in these assays?
VDR inh: -19%

What do the screens show for `Nc1nnc(SCC(=O)Nc2ccccc2)s1`?
VDR inh: 0%&-3%

How did CCOC(=O)N1CCN(Cc2nc3c(c(=O)n(C)c(=O)n3C)n2Cc2cccc3ccccc23)CC1 do in these assays?
VDR inh: 2%

Results for O=C(N/N=C/c1cccc(Oc2ccc([N+](=O)[O-])cc2[N+](=O)[O-])c1)c1cncc(Br)c1 ?
VDR inh: -14%

How did CCc1ccc(-c2cn3nc(-c4ccccc4)cnc3n2)cc1 do in these assays?
VDR inh: -11%

Results for CC1CC(=O)N(Cc2ccccc2)c2ccccc2N1C=O (stereo unspecified) ?
VDR inh: -15%

What do the screens show for `CCOc1ccc(/C=C2\SC(=O)N(CCNC(=O)C3COc4ccccc4O3)C2=O)cc1OC` (stereo unspecified)?
VDR inh: 0%

How did O=C(O)c1ccc(-n2cccc2/C=C2/NC(=O)N(c3cccc(Cl)c3)C2=O)cc1 do in these assays?
VDR inh: -29%

How did Cc1[nH]oc(=O)c1N=Nc1ccccc1 do in these assays?
VDR inh: -6%

Results for Cc1ccc(CSCCNC(=O)/C=C/c2ccc(Cl)cc2)cc1 ?
VDR inh: -8%

Results for Cn1c(=O)[nH]c(=O)c2c1nc(N1CCOCC1)n2CCCSc1ncccn1 ?
VDR inh: -2%

What do the screens show for `COc1ccc(S(=O)(=O)O)cc1P(=O)(c1ccccc1)c1ccccc1`?
VDR inh: 1%

How did COc1ccc(OC)c(NC(=O)C2CCCN2C(=O)C2CCC(C)CC2)c1 (stereo unspecified) do in these assays?
VDR inh: 4%

Results for CCC(=O)Oc1c(Sc2ccc(Cl)cc2)c(C)nn1C(C)(C)C ?
VDR inh: inconclusive

What do the screens show for `O=C(Nc1cccc(NC(=O)c2ccc(Cl)cc2Cl)c1)c1cccnc1`?
VDR inh: inconclusive

Results for COc1ccc(CNC(=O)COc2cc(=O)n(C)c3ccccc23)cc1 ?
VDR inh: 7%

Overlap with the part before: 4 compounds, then new ones.
How did COc1ccc(OC)c(NC(=O)C2CCCN2C(=O)C2CCC(C)CC2)c1 (stereo unspecified) do in these assays?
VDR inh: 4%

Results for CCC(=O)Oc1c(Sc2ccc(Cl)cc2)c(C)nn1C(C)(C)C ?
VDR inh: inconclusive

What do the screens show for `O=C(Nc1cccc(NC(=O)c2ccc(Cl)cc2Cl)c1)c1cccnc1`?
VDR inh: inconclusive

Results for COc1ccc(CNC(=O)COc2cc(=O)n(C)c3ccccc23)cc1 ?
VDR inh: 7%

What do the screens show for `CCN1CCN(c2c(C=O)c(Cl)nc3ccc(OC)cc23)CC1`?
VDR inh: 1%

How did COc1ccc(N2CCN(c3ncccc3C#N)CC2)cc1 do in these assays?
VDR inh: -8%

What do the screens show for `O=C(Cn1cc([N+](=O)[O-])cn1)Nc1ccn(Cc2c(F)c(F)cc(F)c2F)n1`?
VDR inh: -9%

Results for Cc1ccc(NC(=O)C(SCC(=O)O)c2ccccc2)cc1C (stereo unspecified) ?
VDR inh: 1%

Results for Cc1nn(-c2ccccc2)c(C)c1NC(=O)COC(=O)c1ccc(Cl)c(N)c1 ?
VDR inh: -11%

What do the screens show for `Cc1cc(C)c(NC(=O)C2CCCN2CCOC(=O)c2cccc([N+](=O)[O-])c2)c(C)c1` (stereo unspecified)?
VDR inh: -10%

How did COC(=O)C1=C(C)N(Cc2ccccc2)C(=S)N[C@H]1c1cccc(F)c1 do in these assays?
VDR inh: -14%

What do the screens show for `Cc1ccc(NC(=O)COc2cccnc2[N+](=O)[O-])cc1S(=O)(=O)N1CCOCC1`?
VDR inh: 6%

What do the screens show for `COc1ccc(/C=C2/N=C(SC)NC2=O)cc1OC`?
VDR inh: 6%

How did CC1CCCN(C(=O)CSc2nnc(-c3c[nH]c4ccccc34)o2)C1 (stereo unspecified) do in these assays?
VDR inh: 29%

What do the screens show for `O=C(c1ccccc1Br)N1N=C(c2ccccc2)CC1c1ccccc1F` (stereo unspecified)?
VDR inh: -27%

What do the screens show for `COc1cccc(NC(=O)CSc2nnc(CNC(=O)c3ccco3)n2C)c1`?
VDR inh: 9%

By substructure: those above containing a thiophene ring, fused or not.
How did CCCCCC(=O)Nc1c(-c2cccs2)c(=O)c2ccccc2n1C do in these assays?
VDR inh: -8%

Results for Cc1cc(-c2[nH]nc3c2C(c2ccsc2)C(C#N)=C(N)O3)c(C)s1 (stereo unspecified) ?
VDR inh: -17%

More records follow:
Results for FC(F)(F)c1cccc(NC(=S)NCc2ccccc2)c1 ?
VDR inh: 0%

What do the screens show for `O=C(OCC(=O)N1CCOCC1)c1cc(-c2ccccc2)nc2ccccc12`?
VDR inh: 5%

Results for CCc1ccc(CNC(=O)C2CCN(c3nn4cc(-c5ccc(OC)cc5)nc4s3)CC2)cc1 ?
VDR inh: -8%

How did CCCN(CC(=O)Nc1ccccc1OC)C(=O)CC1CCCC1 do in these assays?
VDR inh: -19%

What do the screens show for `COc1ccc(S(=O)(=O)n2nc(-c3ccco3)nc2NCc2ccc(C(C)C)cc2)cc1`?
VDR inh: 8%

What do the screens show for `CCCNC(=O)OCc1cccnc1Sc1ccc(C)cc1`?
VDR inh: -5%

Results for CCCOc1ccc([N+](=O)[O-])cc1C1NC(=S)NC(c2ccccc2)=C1C(=O)OCC (stereo unspecified) ?
VDR inh: -21%

How did COc1nc(OCCNS(=O)(=O)c2ccc(C)cc2)nc(N(C)C)n1 do in these assays?
VDR inh: 9%

How did Cc1ccc(C(=O)O)cc1-c1ccc(/C=C2\SC(=O)N(CC(=O)Nc3ccccc3)C2=O)o1 do in these assays?
VDR inh: 17%

How did Cc1cccc2cc(C(c3nnnn3C(C)(C)C)N3CCN(C(=O)c4ccco4)CC3)c(=O)[nH]c12 (stereo unspecified) do in these assays?
VDR inh: 0%

How did O=C(NCCCn1ccnc1)c1cccc(S(=O)(=O)Nc2ccc(F)cc2)c1 do in these assays?
VDR inh: 0%

What do the screens show for `CCOc1ccc2nc3c(cc2c1)CN(CCOC)C(=NC)S3`?
VDR inh: -12%

What do the screens show for `COC(=O)CCCC1=CC2=CC(=O)C(C)(OC(=O)c3cccs3)C(=O)C2=CN1CCCCO` (stereo unspecified)?
VDR inh: -3%

What do the screens show for `CSCCC(NC(N)=O)C(=O)N(C)CC(=O)Nc1cc(C)ccc1C` (stereo unspecified)?
VDR inh: 15%

Results for CC(C)c1nc2oc3ccccc3c(=O)c2c(=O)n1-c1ccccc1 ?
VDR inh: -8%

What do the screens show for `CCC(Sc1nc(-c2ccccc2)c(C#N)c(=O)[nH]1)C(=O)Nc1cc(C)on1` (stereo unspecified)?
VDR inh: 10%

How did O=C(NCC1CCN(Cc2cccc(Cl)c2)CC1)Nc1ccc(F)c(Cl)c1 do in these assays?
VDR inh: -15%

What do the screens show for `Cc1ccc(NS(=O)(=O)N2CCOCC2)cc1Cl`?
VDR inh: -15%

Results for CC(C)(C)C(=O)NC1CC2CCCC(C1)N2C(=O)Nc1cccc(Cl)c1 (stereo unspecified) ?
VDR inh: -8%

What do the screens show for `CCOC(=O)c1ccc(Nc2c(-c3ccc(OC)cc3)nc3nc[nH]n23)cc1`?
VDR inh: 6%

What do the screens show for `CCCS(=O)(=O)c1ncc(Cl)c(C(=O)N(Cc2ccccc2)Cc2ccco2)n1`?
VDR inh: 22µM*

Results for COc1ccc(C(CNC(=O)C2COc3ccccc3O2)N2CCCC2)cc1 (stereo unspecified) ?
VDR inh: -14%

How did COc1ccccc1N1CCN(C(CNC(=O)C(=O)NCc2ccc(C)cc2)c2cccnc2)CC1 (stereo unspecified) do in these assays?
VDR inh: 1%

How did COC(=O)C1C2C=CC3(CN(CCc4ccccc4)C(=O)C13)O2 (stereo unspecified) do in these assays?
VDR inh: 6%

How did Cc1ccc(CNC(=O)C(=O)NCC2CCCO2)cc1 (stereo unspecified) do in these assays?
VDR inh: -8%

What do the screens show for `CCN(Cc1ccccc1)C(=O)COC(=O)[C@@H]1CCCN1C(=O)c1cccs1`?
VDR inh: 5%

What do the screens show for `O=c1c2c(-c3cccs3)csc2ncn1/N=C/c1ccccn1`?
VDR inh: 6%

Results for O=C(COC(=O)C1=COCCO1)Nc1cc(S(=O)(=O)N2CCCCC2)ccc1Cl ?
VDR inh: -15%

Results for O=C(NC(=S)Nc1ccccc1OC(F)F)c1ccc2c(c1)OCO2 ?
VDR inh: -14%

What do the screens show for `CCOc1ccccc1/C=N/n1c(C)nc2ccccc2c1=O`?
VDR inh: -7%

How did O=C(c1ccc(F)cc1)n1c(NCc2ccccc2)n[nH]c1=S do in these assays?
VDR inh: -12%

Results for CC(Oc1ccc(Cl)cc1Cl)C(=O)/C=C/N(C)C (stereo unspecified) ?
VDR inh: 7%

How did Cc1ccc(-n2c([C@@H]3C[C@H]3c3ccccc3)n[nH]c2=S)cc1 do in these assays?
VDR inh: -11%

What do the screens show for `N#Cc1c(NC(=O)COC(=O)c2ccc(O)cc2O)sc2c1CCC2`?
VDR inh: inconclusive

Results for NC(=O)c1nn(-c2cccc(Cl)c2)c(=O)cc1O ?
VDR inh: -6%

How did O=C(NCCN1CCCCC1)c1ccc(I)cc1 do in these assays?
VDR inh: 11%&-4%

Results for CN1CCC(=NNC(=O)CN(c2ccc([N+](=O)[O-])cc2)S(=O)(=O)c2ccccc2)CC1 ?
VDR inh: -12%

How did Cc1ccc(-n2nnnc2SCc2nc3sc(C)c(C)c3c(=O)[nH]2)cc1 do in these assays?
VDR inh: -17%

How did CC(C)=Cc1oc2ccc([N+](=O)[O-])cc2c1N1CC(C)OC(C)C1 (stereo unspecified) do in these assays?
VDR inh: -25%

Assay outcomes deposited in PubChem by National Center for Advancing Translational Sciences (NCATS).
